Screens from PubChem.
GIV Gai3 FP = inhibitors of GIV GBA-motif binding to rat Galpha-i3. Galpha-i3/FITC-GIV peptide fluorescence polarization, 90 min; active compounds read low; scaled: aluminum fluoride 0%, vehicle 100%. percent of control (FP), % (test concentration not listed). 210,000 tested, 0.42% active. AID 1224905;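 active = replicate mean at 85% of control or lower, very high polarization wells dropped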;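 also: lower values mean more displacement of the GIV peptide from Galpha-i3; wells of about 15 µL received 100 nL stock; the first replicate is given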
Target sequence (P08753 whole entry, looked up): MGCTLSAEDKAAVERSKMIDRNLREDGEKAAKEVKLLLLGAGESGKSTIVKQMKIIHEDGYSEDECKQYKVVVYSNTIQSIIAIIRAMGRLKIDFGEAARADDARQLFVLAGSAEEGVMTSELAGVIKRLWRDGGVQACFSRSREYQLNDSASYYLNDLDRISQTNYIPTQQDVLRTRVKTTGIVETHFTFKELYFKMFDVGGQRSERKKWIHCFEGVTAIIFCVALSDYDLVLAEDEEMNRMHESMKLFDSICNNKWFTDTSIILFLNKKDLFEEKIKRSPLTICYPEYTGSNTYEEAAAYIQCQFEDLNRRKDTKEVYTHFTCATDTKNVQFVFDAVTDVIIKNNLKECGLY
HCMV NEC inh = disrupts HCMV UL50-UL53 complex binding; HTRF UL50-UL53 interaction, normalized percent inhibition; inhibition, % (concentration not given with the values); 190,000 tested, 0.15% active;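 active = both replicates at 50% or more, plus weaker picks with an unusually low signal ratio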;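 also: stock transfer was 100 nL into about 20 µL; 0% = negative control wells and 100% = wells with untagged competitor protein; inactives centre near -12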
Sa growth inh = blocks Staphylococcus aureus growth; S. aureus RN4220 growth, OD600, 20 h, 42 °C; active compounds read low; relative growth, % (test concentration not listed); 170,000 tested, 0.53% active; AID 720641;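 active = growth at 42 °C up to 50% and 20 or more points under that at 30 °C, or under 10% at both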;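 also: 300 nL library stock went into each well; scaled to the means of positive and negative controls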
Sa growth inh second temp = also measured in Sa growth inh; calls as there; relative growth, %; measured here: growth at 30 °C;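 optical density after 20 h as mean of two plates; 100% = untreated growth and lower means inhibition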
* hit, by the source's call; / = no result given; & = joins results of further samples.

SMILES	GIV Gai3 FP	HCMV NEC inh	Sa growth inh	Sa growth inh second temp
C#CCOc1c(Br)cc(/C=N/O)cc1OCC	106	4	74	65
NC(=O)c1ccc(S(N)(=O)=O)o1	100	-21	81	81
Cc1ccn2c(=O)c(C(=O)O)cnc2c1	105	-13	102	85
CC1=CC(=O)N(c2ccn(C)n2)C1=O	97	1	90	90
Cc1c(C2CCN(S(=O)(=O)c3cnc[nH]3)CC2)c2ccccc2n1Cc1ccc(F)cc1	109	-18	/	/
O=C(Nc1ccc(Cl)cc1Cl)c1cc(S(=O)(=O)N2CCC3(CC2)OCCO3)ccc1F	100	/	93	84
CCOC(=O)c1cc(-c2ccc(C)cc2)n(CCC(=O)Nc2nc3c(C)cccc3s2)c1C	98	-34	108	86
CCNC(=O)/C=C/c1cccc(OC)c1OC	/	-27	103	94
O=C(NCc1ccccn1)c1cccnc1SCCS(=O)(=O)c1ccc(C(F)(F)F)cn1	102	-43	94	88
O=c1[nH]cc(NCCO)c(=O)[nH]1	66*	-7	111	91
Fc1cccc(Cl)c1CNCCSc1nnnn1-c1ccccc1	118	-30	90	80
Cn1ncc2c(NNS(=O)(=O)c3ccccc3)ncnc21	106	2	107	100
Clc1ccc(Nc2nnc3c4ccccc4c4ccccc4c3n2)cc1	103	-1	96	88
Cc1cccc(C)c1NC(=O)c1ccc(CN2CCCCC2)cc1	96	-19	101	79
CCN(CC)S(=O)(=O)c1ccc2c(c1)c(=O)c(C(=O)N1CCN(c3cc(Cl)ccc3C)CC1)cn2C	101	2	110	90
COCCNCc1ccc(-c2cccc(C(F)(F)F)c2)o1	101	-15	/	/
CCn1c(=O)cc(SCC(=O)NCCc2cccc(C)c2)c2ccccc21	102	-22	96	72
Cc1c(NC(=O)C(C)OC(=O)c2cccc(S(=O)(=O)N3CCCC3)c2)c(=O)n(-c2ccccc2)n1C (stereo not drawn)	/	-12	94	96
COc1ccc2oc(C(=O)OCc3ccc(OC)c(F)c3)c(C)c2c1	/	17	103	104
COc1ccc2cc(C3CC(c4ccc(OC)c(OC)c4)=NN3C(=O)c3ccco3)c(Cl)nc2c1 (stereo not drawn)	106	/	123	89
CC1=Nc2ccccc2N=C(NC(=O)CSC(=S)N2CCCCC2)C1c1ccccc1 (stereo not drawn)	/	-10	86	81
Cc1cccc(N2CCN(C(=O)CCc3nnc4n(CC(C)C)c(=O)c5ccccc5n34)CC2)c1C	99	-10	91	88
CSc1ccc(C(=O)Nc2nnc(C3=COCCO3)o2)cc1	100	-16	14	2
COc1cc2c(cc1OC)C(C)N(C(=O)c1cc3c(C)cc(C)cc3[nH]1)CC2 (stereo not drawn)	106	1	108	82
COc1cccc(C2C(C#N)=C3N=C(N)c4ccccc4N3C3=C2C(=O)CCC3)c1 (stereo not drawn)	108	-30	104	62
O=C(CSc1nnc(C2CC2)n1Cc1ccco1)c1ccc2[nH]c(=O)oc2c1	/	13	97	84
Cc1cc(C)n(CCCNCc2ccc(OCc3csc(C)n3)cc2)n1	/	-2	100	93
Cc1nc2c(-c3ccccc3)c(C)nn2c(C)c1CC(=O)NCCN1CCOCC1	107	0	101	89
O=C(NCc1ccccc1)NCc1ccccc1	105	10	78	96
COC(=O)c1ccccc1N=C(C)C1=C(O)c2ccccc2C1=O	100	/	94	82
COc1ccc(C)c2sc(NC(=O)c3ccc(S(=O)(=O)N4CCCCC4)cc3)nc12	95	/	90	90
CC(=O)c1ccc(NC(=O)CCCc2nc(-c3cccc(C)c3)no2)cc1	102	-23	112	88
O=c1cc(-c2ccc(F)cc2)[nH]n1-c1nc2ccccc2[nH]1	101	-16	15	1
CC1SC2=NNC(c3ccc(Cl)cc3)=CN2C1=O (stereo not drawn)	/	-18	86	89
COC(=O)c1c(NC(=O)C(C)Oc2ccc(Cl)c(C)c2)sc(C)c1C (stereo not drawn)	106	20	105	99
COc1cccc(NC(=O)NCc2c(-c3ccccc3)noc2C)c1	104	-18	102	93

Arranged by value in Sa growth inh (rising): three of the compounds above.
compound,GIV Gai3 FP,Sa growth inh,Sa growth inh second temp
CC1=Nc2ccccc2N=C(NC(=O)CSC(=S)N2CCCCC2)C1c1ccccc1 (stereo not drawn),/,86,81
COC(=O)c1ccccc1N=C(C)C1=C(O)c2ccccc2C1=O,100,94,82
Cc1ccn2c(=O)c(C(=O)O)cnc2c1,105,102,85

Following part:
SMILES	GIV Gai3 FP	HCMV NEC inh	Sa growth inh	Sa growth inh second temp
Cc1oc2ccccc2c1CC(=O)Nc1ccc(C(F)(F)F)cc1	108	-4	106	98
COc1ccc(/C=C/C(=O)N2CCN=C2c2ccccc2)cc1OC	97	/	93	83
O=C(O)COc1cccc(Br)c1	/	-17	135	84
COc1cc(OC)c(CN2CCN(c3ccccc3C)CC2)cc1Br	94	27	110	95
CC(C)(C)c1ccc(/C=N/n2cnnc2)cc1	110	/	93	83
CC(C)NC(=S)Nc1ccc2[nH]c(=O)[nH]c2c1	/	-22	86	87
CC(=O)NC(Cc1c[nH]c2ccccc12)C(=O)OCc1nc(N)nc(Nc2ccccc2C)n1 (stereo not drawn)	/	-13	86	91
Cc1ccc(F)cc1NC(=O)/C=C\C(=O)O	105	-17	85	83
NC(=Nc1ccc(Cl)cc1)c1ccccc1	/	-17	104	84
CN(C(=S)NC(=O)C1CC1)c1ccccc1	/	-4	85	92
COc1ccc(CCN2C(=O)N(c3ccc(F)cc3)C(=O)C2CC(=O)Nc2ccccc2)cc1 (stereo not drawn)	103	-37	104	83
O=c1c2ccccc2nc2c3ccccc3c(N3CCOCC3)nn12	106	/	121	82
O=c1c(NCCc2ccc(Cl)cc2)nccn1-c1ccccc1	99	/	90	96
NNc1nnc(-c2ccccc2)c2ccccc12	/	-69	95	47
CCOc1cc(C(=O)Nc2ccc3nc(Nc4cccc(Cl)c4)cc(C)c3c2)cc(OCC)c1OCC	98	/	113	89
COc1ccccc1NC(=O)c1oc2ccccc2c1NC(=O)Cc1cccs1	105	-22	112	90
CCOc1ccc(NC(=O)c2cnn3c(C(F)F)cc(-c4ccc(C)cc4)nc23)cc1	98	-9	103	88
Cc1c(Cl)cccc1NC(=S)N(C1CCCCC1)C(C)c1cccnc1 (stereo not drawn)	99	/	104	54
CNCc1ccc(SC)cc1	/	-13	89	88
CN1N=C2c3ccccc3CCCC2C1c1ccc2c(c1)OCO2 (stereo not drawn)	96	-26	110	91
O=C(Nc1cc(C(F)(F)F)ccc1Cl)C1=COCCO1	/	-12	99	101
N#C/C(=C\Nc1nccs1)S(=O)(=O)c1ccc(Cl)cc1	102	-12	80	89
COc1ccc2c(CNC3CCCC3)c(C(=O)O)n(Cc3ccccc3C)c2c1	107	/	114	93
C=CCNC(=O)c1sc(N(CC)CC)nc1N	103	-17	/	/
Cc1ccc2c(c1)-c1c(cnc3cc(-c4ccc(F)cc4)nn13)CO2	110&97	-9&-31	105	90
CCCN(CCC)C(=O)Cn1c(=O)n(Cc2ccc(C(=O)NCc3ccco3)cc2)c(=O)c2ccccc21	106	-6	112	94
Cc1cc(Cl)ccc1NC(=O)c1ccc(-n2nnc3cccnc32)cc1	125	-20	/	/
O=C(NCC(=O)N1CCCCCC1)c1cccs1	109	/	93	88
CCOc1ccc(-c2n[nH]c(=S)n2CC)cc1	104	-20	89	85
C=CCNC(=O)CN1c2ccc(Br)cc2-c2ccccc2S1(=O)=O	103	-10	/	/
NC(=O)c1cc(S(=O)(=O)NC2CCCc3ccccc32)cs1 (stereo not drawn)	113	8	105	100
O=C(Cc1ccccc1)NN(c1ccccc1)c1ccccc1	/	-3	116	89
Cc1ccc2nc3c(cc(C#N)c(=O)n3-c3nnc(SCc4ccccc4Cl)s3)c(=O)n2c1	104	-25	106	80
Cc1cc(C(=O)ONC(=O)c2ccco2)nn1-c1cc(Cl)ccc1Cl	101	-35	103	93
CCCCn1cc(S(=O)(=O)c2ccc(CC)cc2)c(=O)c2cc(F)c(N3CCCC(C)C3)cc21 (stereo not drawn)	109	/	69	79
CCN(CC)c1ccc(C(=S)N2CCN(CCO)CC2)cc1	100	-7	98	97

Entries above that contain a thiophene ring, fused or not:
SMILES	GIV Gai3 FP	HCMV NEC inh	Sa growth inh	Sa growth inh second temp
COC(=O)c1c(NC(=O)C(C)Oc2ccc(Cl)c(C)c2)sc(C)c1C (stereo not drawn)	106	20	105	99
COc1ccccc1NC(=O)c1oc2ccccc2c1NC(=O)Cc1cccs1	105	-22	112	90
O=C(NCC(=O)N1CCCCCC1)c1cccs1	109	/	93	88
NC(=O)c1cc(S(=O)(=O)NC2CCCc3ccccc32)cs1 (stereo not drawn)	113	8	105	100

More results follow:
SMILES	GIV Gai3 FP	HCMV NEC inh	Sa growth inh	Sa growth inh second temp
O=c1cc(-c2ccccc2)[nH]n1-c1nc2ccccc2[nH]1	100	-17	7.5*	1.8*
O=C(NCCCN1CCOCC1)c1cc2sc3ccccc3c2s1	/	-52	100	91
CCN1C(=O)c2cccc3c(NC(=O)c4cccc(OC)c4)ccc1c23	125	-36	96	90
O=C(CCc1nc2ccccc2c(=O)[nH]1)Nc1ccc(F)cc1	/	-35	77	87
Nn1c(SCc2cccc(Br)c2)nnc1-c1ccccc1	103	-4	105	93
CC(c1ccccc1)N1C(=O)c2ccccc2C1Nc1ccc(F)cc1 (stereo not drawn)	100	/	87	89
CC1CN(C(=O)COC(=O)/C=C/c2ccc(C(F)(F)F)cc2)CC(C)O1 (stereo not drawn)	/	-30	105	89
O/N=C\c1cn(-c2ccccc2)nc1-c1ccc(Br)cc1	/	-14	108	68
COc1cccc(C2CC(c3ccc(Br)cc3)=NN2C(=O)c2ccncc2)c1OC (stereo not drawn)	107	-1	/	/
FC(F)(F)c1cc(Cl)nc(-c2ccccc2)n1	105	-5	115	95
NC(=O)COC(=O)c1ccc(Cl)c(S(=O)(=O)N2CCCCCC2)c1	/	-30	107	89
CCCSc1nc2sc3c(c2c(=O)n1-c1ccc(C)cc1)CCCC3	101	-52	93	84

Only Sa growth inh second temp, GIV Gai3 FP and HCMV NEC inh, for some of the entries so far:
compound | Sa growth inh second temp | GIV Gai3 FP | HCMV NEC inh
Nn1c(SCc2cccc(Br)c2)nnc1-c1ccccc1 | 93 | 103 | -4
CC(c1ccccc1)N1C(=O)c2ccccc2C1Nc1ccc(F)cc1 (stereo not drawn) | 89 | 100 | /
CC1CN(C(=O)COC(=O)/C=C/c2ccc(C(F)(F)F)cc2)CC(C)O1 (stereo not drawn) | 89 | / | -30
O/N=C\c1cn(-c2ccccc2)nc1-c1ccc(Br)cc1 | 68 | / | -14
COc1cccc(C2CC(c3ccc(Br)cc3)=NN2C(=O)c2ccncc2)c1OC (stereo not drawn) | / | 107 | -1
FC(F)(F)c1cc(Cl)nc(-c2ccccc2)n1 | 95 | 105 | -5

(more compounds)
SMILES	GIV Gai3 FP	HCMV NEC inh	Sa growth inh	Sa growth inh second temp
CC(C(=O)NCCSCc1cccc(Cl)c1)N(c1ccccc1)S(C)(=O)=O (stereo not drawn)	91	-2	101	88
Cn1nc(CC(=O)Nc2nncs2)c2ccccc2c1=O	99	-30	88	72
Cc1cc(C(=O)NC2CCC(O)CC2)c(C)o1 (stereo not drawn)	/	-17	87	85
CSc1nc(C=Nc2ccc(C)cc2)ccc1C#N	102	2	89	62
CC(C)(C)P(=NC(=S)N1CCCCCC1)(N1CCOCC1)N1CCOCC1	/	-12	86	84
CCOc1cc(/C=C2\SC(N)=NC2=O)ccc1OCc1ccc(Br)cc1	110	18	/	/
COc1ccc(C2C3=C(CCCC3=O)Nc3n[nH]c(-c4ccccc4)c32)cc1 (stereo not drawn)	109	11	93	110
O=S(=O)(CCN1CCC(n2cccc2)CC1)c1ccc(F)cc1	111	-6	96	91
Cc1ccc(CCNC(=O)c2cc3sccc3n2Cc2ccc(F)cc2)cc1	101	6	106	94
Nc1nonc1C(=O)N1CCCN(S(=O)(=O)c2ccc(F)c(Cl)c2)CC1	101	-11	/	/
Clc1cccc(CSc2nnc3ccccn23)c1	/	-3	109	92
CCc1ccc(CNC(=O)CCCN2C(=O)CCn3nc(-c4cccn4C)cc32)cc1	108&104	7	89	87
CC1(C)Cc2cccc(C(=O)Nc3cccnc3)c2O1	99	2	103	74
NS(=O)(=O)c1ccc(CCNC(=O)c2ccncc2)cc1	/	-6	96	90
CCCN(CCC)C(=O)Cn1ncc2c(=O)oc3ccccc3c21	104	3	84	88
Cc1n[nH]c(C)c1S(=O)(=O)N1CCC2(CC1)OCCO2	106	/	87	87
CC(C)(C)NC(=O)c1cccc(NC(=O)Cc2cccs2)c1	/	-2	114	85
CC(C)(C)c1ccc(C(=O)NCCC(=O)Nc2nn3cnnc3s2)cc1	/	-8	106	91
Cc1cccc(NC(=O)C(=O)NCCc2csc(-c3ccc(C(F)(F)F)cc3)n2)c1C	99	/	96	94
CCn1cc(C(=O)N2CCN(c3cc(Cl)ccc3C)CC2)c(=O)c2cc(S(=O)(=O)N3CCOCC3)ccc21	102	-12	103	84
O=C(NCc1ccccc1)C(=O)NCC(c1cccnc1)N1CCc2ccccc2C1 (stereo not drawn)	107	-13	/	/
CCSc1nnc(C2CCN(CC(=O)Nc3ccc(N4CCCCCC4)cc3)CC2)n1C	103	-6	94	75
CCC(C)NC(=O)CCc1nc(-c2nn(-c3ccccc3)c(=O)n(CC)c2=O)no1 (stereo not drawn)	102	-77	/	/
O=P(O)(CN1CCCCCC1)C1Cc2ccccc2C1	99	/	98	95
O=C(CSc1nnnn1-c1ccccc1)N(C1CCCCC1)C1CCCCC1	105	-10	114	94
O=C(CCNc1n[nH]c(=O)[nH]c1=O)NCc1ccco1	/	-14	116	82
O=C(CCc1ccsc1)Nc1nc2ccccc2[nH]1	/	-15	85	90
